Sa growth inh: blocks Staphylococcus aureus growth; S. aureus RN4220 growth, OD600, 20 h, 42 °C; active compounds read low; relative growth, % (concentration not given with the values); 170,000 tested, 0.53% active; AID 720641;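 active = growth at 42 °C up to 50% and 20 or more points under that at 30 °C, or under 10% at both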;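 note: 300 nL library stock went into each well; scaled to the means of positive and negative controls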
GIV Gai3 FP: blocks GIV peptide binding to rat Galpha-i3; percent of control (FP), % (concentration not given with the values); Galpha-i3/FITC-GIV peptide fluorescence polarization, 90 min; active compounds read low; scaled: aluminum fluoride 0%, vehicle 100%; 210,000 tested, 0.42% active;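 active = replicate mean at 85% of control or lower, very high polarization wells dropped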;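 note: wells of about 15 µL received 100 nL stock; the first replicate is given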
Target sequence (P08753 whole entry, looked up): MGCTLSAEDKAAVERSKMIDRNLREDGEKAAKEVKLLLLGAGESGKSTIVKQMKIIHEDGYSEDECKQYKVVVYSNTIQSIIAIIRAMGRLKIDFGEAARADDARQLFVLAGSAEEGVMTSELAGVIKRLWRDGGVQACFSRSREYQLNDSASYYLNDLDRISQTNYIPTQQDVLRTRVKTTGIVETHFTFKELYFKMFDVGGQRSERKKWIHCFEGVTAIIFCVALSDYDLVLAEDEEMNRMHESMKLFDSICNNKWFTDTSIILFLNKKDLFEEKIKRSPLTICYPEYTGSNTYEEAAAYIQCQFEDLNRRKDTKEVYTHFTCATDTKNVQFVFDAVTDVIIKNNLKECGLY
HCMV UL50-53 inh: cytomegalovirus nuclear egress complex inhibition | AID 1918969 | inhibition, % (test concentration not listed) | HTRF UL50-UL53 interaction, normalized percent inhibition | 190,000 tested, 0.15% active;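 active = both replicates at 50% or more, plus weaker picks with an unusually low signal ratio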;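 note: stock transfer was 100 nL into about 20 µL; 0% = negative control wells and 100% = wells with untagged competitor protein; inactives centre near -12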
Sa growth inh second temp: second read-out of Sa growth inh, no call of its own (marks repeat the call); relative growth, %; measured here: growth at 30 °C;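 optical density after 20 h as mean of two plates; 100% = untreated growth and lower means inhibition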
An asterisk follows results filed as active; nt = no result given; & = joins results of further samples.

(1) Cc1ccc(C(=O)Nc2c(N)nc(SCC(=O)N3CCCc4ccccc43)[nH]c2=O)cc1
(2) CC(=O)Oc1ccc(C(=O)N2CCc3ccccc3C2)cc1
(3) COc1ccccc1NC(=O)Nc1ccccc1OC
(4) Cc1cccc(C)c1OCC(=O)Nc1c(C(=O)c2ccccc2)oc2ccccc12
(5) COc1cc(/C=C2/SC(=S)N(CC(=O)O)C2=O)cc(OC)c1OC
(6) CC1CN(C(=O)Nc2ccc(C(=O)NCc3ccc(F)cc3)cc2)c2ccccc2S1 (stereo not drawn)

entry no.	1	2	3	4	5	6
Sa growth inh	114	113	108	101	nt	nt
Sa growth inh second temp	97	86	95	93	nt	nt
GIV Gai3 FP	101	nt	104	103	97	99
HCMV UL50-53 inh	-20	-6	1	-6	-75	4

(7) Cc1cc(C)c(Cn2c3ccccc3c3cnn(CC(=O)NCCC4=CCCCC4)c(=O)c32)c(C)c1
(8) CCOC(=O)Cn1c(=N)n(Cc2ccc(C(C)(C)C)cc2)c2ccccc21
(9) CCOc1cc(C(=O)OCc2cc(=O)n3nc(CC)sc3n2)cc(OCC)c1OCC
(10) CCCNC(=O)c1ccc(-c2nn(C)c(=O)c3ccccc23)cc1
(11) COc1ccc(C(=O)Cn2ccsc2=NC(C)=O)cc1
(12) CCCCOC(=O)Nc1ccc(N(C)C)cc1

entry no.	7	8	9	10	11	12
Sa growth inh	103	93	100	90	97	95
Sa growth inh second temp	94	89	74	83	89	93
GIV Gai3 FP	94	101	101	99	nt	105
HCMV UL50-53 inh	-12	-10	nt	-36	-21	-10

(13) CSc1ncc(C(=O)Nc2ccc(C)c(Cl)c2)c(-c2ccccc2)n1
(14) CCOC(=O)/C=C1\SCC(=O)N1CCOc1cccc(Br)c1
(15) COc1cc(NC(=O)N2CCC3(CC2)Nc2cc(F)ccc2-n2cccc23)cc(OC)c1OC
(16) Cc1nc(S(=O)(=O)N2CCC(NC(=O)c3ccccc3)CC2)cn1C
(17) Cc1ccc(S(=O)(=O)CCC(=O)N2CCN(c3ccccc3)CC2)cc1
(18) COC(=O)c1noc(-c2ccccc2)n1

entry no.	13	14	15	16	17	18
Sa growth inh	70	99	98	95	84	87
Sa growth inh second temp	100	100	84	95	80	96
GIV Gai3 FP	102	nt	98	108	nt	nt
HCMV UL50-53 inh	nt	6	nt	-6	-24	11

(19) COCCCNC(=O)CCc1nc2sc3c(c2c(=O)[nH]1)CCCCC3
(20) Cc1cccc(N2CCN(C(=O)CCCCn3c(=O)[nH]c4ccsc4c3=O)CC2)c1C
(21) Cc1cccc(-c2nnc(SCc3cc(=O)n4nc(C)sc4n3)o2)c1
(22) CC1(C(=O)Nc2nccs2)Cc2ccccc2C(=O)O1 (stereo not drawn)
(23) CCOc1ccc(C(=O)NCC(c2cccs2)S(=O)(=O)c2ccccc2)cc1 (stereo not drawn)
(24) CCN(c1ccccc1)c1nc2nonc2nc1NCCO

entry no.	19	20	21	22	23	24
Sa growth inh	nt	80	nt	116	104	nt
Sa growth inh second temp	nt	61	nt	90	97	nt
GIV Gai3 FP	105	105	96	110	97	102
HCMV UL50-53 inh	-26	-1	-2	0	nt	-103

(25) COc1ccc(Nc2n[nH]c(N)n2)cc1
(26) O=C(CSc1nc2ccccc2o1)Nc1ccc(Br)cc1
(27) Cc1nn(CC(=O)NC2CCCC2)c2ccccc12
(28) Cc1ccc(-c2nc(CS(=O)(=O)CC(=O)N3CCN(c4ccccc4)CC3)c(C)o2)cc1
(29) CCCCN1C(=O)NC(C(F)(F)F)(C(F)(F)F)C2=C1CC(C)(C)CC2=O
(30) c1ccc(CN2CCC(N3CCN(C4CCCCC4)CC3)CC2)cc1

entry no.	25	26	27	28	29	30
Sa growth inh	108	nt	112	107	107	104
Sa growth inh second temp	86	nt	93	88	92	99
GIV Gai3 FP	102	105	105	104&103	102	97
HCMV UL50-53 inh	-4	-15	nt	2&-22	nt	-28

(31) CC(C)Cc1cc(-c2nn3c(CSc4ccccc4)nnc3s2)n[nH]1
(32) Cc1ccc(Cl)cc1NC(=O)Cn1c(=O)c(CNc2ccccc2)cc2cc3c(cc21)OCCO3
(33) COc1ccc(OC)c(NC(=O)NCCN2CCc3ccccc3C2)c1
(34) CCN(CC)S(=O)(=O)c1ccc(-c2nnc(SCC(=O)O)n2CC)cc1
(35) Cc1nc2c3ccccc3nc(SCc3cccc(C(F)(F)F)c3)n2n1
(36) Cn1cnc2c(cnn2-c2ccc(F)cc2)c1=O

entry no.	31	32	33	34	35	36
Sa growth inh	nt	89	nt	102	94	100
Sa growth inh second temp	nt	89	nt	90	92	86
GIV Gai3 FP	104	105	104	100	103	100
HCMV UL50-53 inh	-22	nt	-3	-10	nt	nt

(37) Cc1ccc(N2C(=O)c3cc(C)nn3CC2(C)C(=O)NCc2ccc(F)cc2)cc1 (stereo not drawn)
(38) Cc1cc(NNC(=O)c2ccccc2)nc(NNC(=O)c2ccccc2)n1
(39) CCCCOc1nnc(-c2ccc(OCC)cc2)c2ccccc12
(40) CCN(CCCNC(=O)c1nn(-c2ccc(C)cc2)c(=O)c2c1c1ccccc1n2C)c1cccc(C)c1
(41) O=C(O)[C@H]1CCCC[C@H]1C(=O)NCCc1ccccc1
(42) COc1ccc(C2CC(=O)C3=C(C2)NC(C)=C(C(=O)OCc2ccccc2)C3c2ccc3c(c2)OCO3)cc1 (stereo not drawn)

entry no.	37	38	39	40	41	42
Sa growth inh	nt	110	96	107	113	nt
Sa growth inh second temp	nt	109	86	94	94	nt
GIV Gai3 FP	100	99	105	98	99	104
HCMV UL50-53 inh	1	-5	-16	-12	-10	-6

(43) CC1(C)C(=O)Nc2ccccc2N1C(=O)CSc1nnc(COc2ccccc2Cl)o1
(44) CCc1cccc2c1=NC(=O)C=2c1sc(N)nc1O
(45) CC1CCCCN1CCCNC(=O)c1ccc(Br)cc1 (stereo not drawn)
(46) CCOc1ccc(C(=O)Nc2ccccc2OCc2cc(=O)n3ccccc3n2)cc1
(47) O=c1[nH]c2ccc(S(=O)(=O)Nc3ccccc3)cc2o1
(48) COc1ccccc1-c1c(C)nn2c(SCC(=O)NCc3ccccc3)cc(C)nc12

entry no.	43	44	45	46	47	48
Sa growth inh	79	97	80	96	99	nt
Sa growth inh second temp	79	85	93	94	74	nt
GIV Gai3 FP	nt	101	nt	109	106	99
HCMV UL50-53 inh	-26	-20	-10	nt	-9	11

(49) CCOc1ccccc1NC(=O)Cn1ccn(Cc2ccc(C)cc2)c(=O)c1=O
(50) Cc1nc2c(C)cccn2c(=O)c1Cc1nnc(SCC(=O)NCc2nc3ccccc3[nH]2)n1C
(51) O=C(Cn1ncc2c([nH]c3ccccc32)c1=O)NCC1CCN(Cc2ccccc2F)CC1
(52) CC(C)(C)c1ccccc1N1C(=O)C=CC1=O
(53) O=C(c1ccco1)N(Cc1ccccc1)Cc1ccccc1
(54) Cc1ccccc1OCC(=O)Nc1cccc(C(=O)OCc2cc(=O)n3c(C)csc3n2)c1

entry no.	49	50	51	52	53	54
Sa growth inh	95	nt	102	19	104	73
Sa growth inh second temp	92	nt	96	0	66	86
GIV Gai3 FP	100	105	107	103	103	99
HCMV UL50-53 inh	-6	-9	-27	-4	12	nt

Given bar-delimited: 4 of the compounds above.
cpd | compound | Sa growth inh | Sa growth inh second temp | GIV Gai3 FP | HCMV UL50-53 inh
51 | O=C(Cn1ncc2c([nH]c3ccccc32)c1=O)NCC1CCN(Cc2ccccc2F)CC1 | 102 | 96 | 107 | -27
52 | CC(C)(C)c1ccccc1N1C(=O)C=CC1=O | 19 | 0 | 103 | -4
53 | O=C(c1ccco1)N(Cc1ccccc1)Cc1ccccc1 | 104 | 66 | 103 | 12
54 | Cc1ccccc1OCC(=O)Nc1cccc(C(=O)OCc2cc(=O)n3c(C)csc3n2)c1 | 73 | 86 | 99 | nt

(list continues)
(55) Cc1ccc(NC(=O)CSc2ccc3nnc(CCNS(=O)(=O)c4ccccc4)n3n2)cc1Cl
(56) N#CC(C(=O)Nc1ccccc1)=C1Nc2ccccc2N1
(57) Cn1cnnc1SCC(=O)N1CC2(C)CC1CC(C)(C)C2 (stereo not drawn)
(58) CCN1CCN(CC(=O)c2ccccc2Br)CC1
(59) CCOc1ccc(C(=O)n2cnc3cc(C)c(C)cc32)cc1
(60) CCC(Sc1nc2ccccc2c2nc3ccccc3n12)C(=O)NCc1ccco1 (stereo not drawn)

entry no.	55	56	57	58	59	60
Sa growth inh	103	103	119	71	103	93
Sa growth inh second temp	85	49	91	85	86	95
GIV Gai3 FP	111	102	nt	nt	99	106
HCMV UL50-53 inh	nt	nt	-9	-5	nt	1

(61) CCc1nn(C(C)C(=O)NC)c(=O)c2cc3occc3n12 (stereo not drawn)
(62) CCc1cc2c(=O)n(Cc3ccccc3)c(SCc3c(C)noc3C)nc2s1
(63) CC(C)N(C(=O)Cn1cc(S(=O)(=O)CC(N)=O)c2ccccc21)C(C)C
(64) CCc1nnc(SC(CC)C(=O)Nc2ccc(OC)c(Cl)c2)c2cc3occc3n12 (stereo not drawn)
(65) CC1CCCCN1C(=O)CN1CCN(C)CC1 (stereo not drawn)
(66) Cc1ccc(-c2cc(C(F)(F)F)n3nc(C(=O)N(C)Cc4ccccc4)cc3n2)cc1

entry no.	61	62	63	64	65	66
Sa growth inh	117	75	70	85	118	116
Sa growth inh second temp	90	88	86	86	91	96
GIV Gai3 FP	103	nt	98	105	106	nt
HCMV UL50-53 inh	nt	-26	-40	nt	-24	-9

(67) CCOC(=O)c1c(NC(C)=O)sc2c1CCCNC2=O
(68) Cc1ccc2nc(COc3ccccc3NC(=O)COc3ccc(F)cc3)cc(=O)n2c1
(69) FC(F)(F)c1cc(-c2ccccc2)n2c(n1)nc1ccccc12
(70) O=C(NCCn1cc(SCc2ccc(C(F)(F)F)cc2)c2ccccc21)c1cccs1
(71) O=c1c2[nH]c3ccc(F)cc3c2ncn1Cc1ccccc1Cl
(72) Cc1cccc(NC(=O)Cn2c(=O)n(CCCS(=O)(=O)C3CCCCC3)c(=O)c3ccccc32)c1

entry no.	67	68	69	70	71	72
Sa growth inh	110	101	94	108	nt	78
Sa growth inh second temp	75	101	76	85	nt	100
GIV Gai3 FP	nt	104	124	102	101	104
HCMV UL50-53 inh	4	nt	nt	-4	-11	-16

(73) O=C(c1ccc2c(=O)n(CCc3ccccc3)c(=O)[nH]c2c1)N1CCN(c2ccc(F)cc2)CC1
(74) CCC(=O)N1CCc2cc(Br)cc(S(=O)(=O)CCC(=O)NCCc3ccc(Cl)cc3)c21
(75) CC1=C(c2ccc(C)c(C)c2)S(=O)(=O)N(Cc2ccc(C(=O)NCc3ccccc3F)cc2)C1=O
(76) COC(=O)c1c(C)sc2c(C(F)(F)F)cc(OC)nc12
(77) COc1cc(OC)c(N(C)C(=O)c2cc3c(s2)-c2ccccc2OC3)cc1Cl
(78) CCn1c(SC)nc2c(c1=O)C1(CCCC1)Cc1ccccc1-2

entry no.	73	74	75	76	77	78
Sa growth inh	92	95	107	102	112	89
Sa growth inh second temp	88	98	85	86	93	80
GIV Gai3 FP	108	104	100&100	102	101	95
HCMV UL50-53 inh	-2	-11	-14&14	-26	9	-24

(79) O=C(CCCn1nnc2cc(S(=O)(=O)N3CCCCC3)ccc21)N1CCN(c2ccccc2)CC1
(80) c1cc2c(cc1CNc1ccc3nncn3n1)OCO2
(81) COc1ccc(C(=O)N/N=c2/c(=O)c(=O)c3ccccc23)cc1
(82) O=C(CC(c1ccccc1)c1ccccc1)NCC1COc2ccccc2O1 (stereo not drawn)
(83) COc1ccc(OC)c(NC(=O)Nc2cccc(OCc3cc(=O)n4cc(C)ccc4n3)c2)c1
(84) COc1ccc2c(c1)c1c(c(=O)n(Cc3ccccc3)c(=O)n1CC(=O)NCc1ccccc1)n2C

entry no.	79	80	81	82	83	84
Sa growth inh	nt	97	75	115	90	81
Sa growth inh second temp	nt	83	78	100	91	81
GIV Gai3 FP	108	101	nt	nt	94	109
HCMV UL50-53 inh	8	2	-3	5	nt	nt

(85) CC(C)C(=O)N1CCCSC1=Nc1ccccc1
(86) O=C1c2ccccc2C(=O)c2c(NC(=O)C(c3ccccc3)c3ccccc3)cccc21
(87) CN(C)c1ccc(C=Nc2ccccc2)cc1
(88) O=c1c(-c2ccccc2Cl)coc2cc(O)ccc12
(89) CC(=O)Nc1ccc(S(=O)(=O)NCc2ccc(C(=O)NCCN3CCCCCC3)cc2)cc1
(90) CC1=C(C(=O)OCc2ccc(C)cc2)C(c2ccccc2OCc2ccccc2)NC(=O)N1 (stereo not drawn)

entry no.	85	86	87	88	89	90
Sa growth inh	104	nt	78	88	85	nt
Sa growth inh second temp	95	nt	91	51	97	nt
GIV Gai3 FP	nt	102	106	159	109	101
HCMV UL50-53 inh	-3	-29	nt	-28	nt	-15

(91) COC(=O)Nc1cccc(Cl)c1
(92) CN(Cc1ccccc1)c1ncnc2onc(-c3cccc(Cl)c3)c12
(93) CC(C)c1ccc(S(=O)(=O)NCc2nc3cccnc3n2Cc2ccc(F)cc2)cc1
(94) O=C(C[n+]1ccccc1)Nc1ccccc1C(=O)O
(95) COc1cc2c(cc1NC(=O)C(C)NCCc1ccc(F)cc1)oc1ccccc12 (stereo not drawn)
(96) CCc1cccc(C)c1NC(=O)c1cc(S(=O)(=O)NCc2ccccc2Cl)ccc1F
(97) C=CCc1cccc2cc(NC(C)=O)c(=O)oc12

entry no.	91	92	93	94	95	96	97
Sa growth inh	104	99	101	117	110	116	92
Sa growth inh second temp	81	83	90	86	64	100	83
GIV Gai3 FP	nt	99	107	103	nt	102	100
HCMV UL50-53 inh	-20	-18	nt	nt	-9	nt	-106
